CSC inhib: cancer stem cell viability inhibitors, primary screen, luminescence. cancer stem cell-like cells viability. inhibition, % at 7.5 µM. 300,000 compounds, 1.1% hits;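 active = mean at 75% or more and at least half the replicates too; inconclusive = mean and replicates disagree; tested in HMLE shEcad cells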;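 also: 0% = median of negative and 100% = median of positive control wells; the first replicate is given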
PABP polyA inh: PABP poly(A) RNA binding inhibitors, primary screen, biochemical, fluorescence polarization, uHTS; Polyadenylate-binding protein 1 (Homo sapiens), P11940; inhibition, % at 35 µM; 290,000 compounds, 1% hits;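 active = 50% or more with normal probe brightness, or confirmed in later tests; inconclusive = above 50% with abnormal brightness, or retests that disagree; inactive = below 50% or failed in later tests; about a fifth of its hits are not listed in these tables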;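 also: calls also rest on retests at 20 µM and on dose response follow-up; controls were probe without protein and protein plus probe with vehicle; some compounds called inactive have numbers as strong as hits; many hits fall short of the cut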
Target sequence (P11940 whole entry, looked up): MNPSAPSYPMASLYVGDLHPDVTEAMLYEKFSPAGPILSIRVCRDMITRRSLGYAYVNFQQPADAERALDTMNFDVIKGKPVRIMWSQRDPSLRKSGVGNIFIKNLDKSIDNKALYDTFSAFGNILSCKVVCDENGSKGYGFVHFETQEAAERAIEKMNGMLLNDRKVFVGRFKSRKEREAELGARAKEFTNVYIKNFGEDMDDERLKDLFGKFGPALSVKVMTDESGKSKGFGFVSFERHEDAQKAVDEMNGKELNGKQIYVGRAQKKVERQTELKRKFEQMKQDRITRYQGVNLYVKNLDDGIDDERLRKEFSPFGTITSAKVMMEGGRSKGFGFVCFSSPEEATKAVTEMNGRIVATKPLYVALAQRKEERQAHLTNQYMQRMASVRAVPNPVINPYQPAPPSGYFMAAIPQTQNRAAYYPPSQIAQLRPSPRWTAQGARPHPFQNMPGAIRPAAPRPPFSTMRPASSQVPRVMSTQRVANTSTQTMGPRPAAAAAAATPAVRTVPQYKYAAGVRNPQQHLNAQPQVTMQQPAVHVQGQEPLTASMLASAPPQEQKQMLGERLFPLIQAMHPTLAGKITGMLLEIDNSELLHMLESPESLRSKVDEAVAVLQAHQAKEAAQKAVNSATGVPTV
Env fusion inh: inhibitors of HIV-1 Env-driven cell-cell fusion, primary screen, HeLa-JRFL effector, CEM21 target cells, luciferase; inhibition, % at 12.3 µM; AID 651610, 2012; 360,000 compounds, 1.1% hits;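 active = mean replicate inhibition score of at least 50 and every replicate individually at or above 50; inconclusive = only one of the two criteria met; inactive = mean below 50 and not all replicates reaching 50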;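 also: 0% = plate neutral controls and 100% = maraviroc near 300 nM; one replicate is shown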
Yeast UUG start: modulators of yeast start codon fidelity, primary screen, whole organism, S. cerevisiae, single point, plate reader; S. cerevisiae UUG-firefly luciferase reporter, luminescence/redox ratio; activity score, % at 18.7 µM; 350,000 compounds, 0.13% hits;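 active = replicate mean at a twofold rise or more, about +100% in these data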;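 also: firefly luciferase made from a UUG start codon reports start codon fidelity; reporter light over untreated wells divided by growth signal over untreated wells; some hits fall short of that in this replicate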
Rce1 inhib: yeast Rce1p protease inhibitors, primary screen, biochemical, fluorescence, cell-free homogeneous. calls only. yeast membranes, quenched prenylated peptide cleavage fluorescence. CAAX prenyl protease 2 (Saccharomyces cerevisiae (strain ATCC 204508 / S288c)), Q03530. AID 2563, 2010. 290,000 compounds, 0.27% hits;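 active = fall in fluorescence gain of 50% or more versus controls, with final raw signal at or below 3038400; inconclusive = same 50% fall but final raw signal above 3038400; inactive = fall in fluorescence gain under 50%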;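 also: plate controls were neutral control wells for no effect and wells lacking membranes for full effect; tested at 10 µM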
Target sequence (Q03530 whole entry, looked up): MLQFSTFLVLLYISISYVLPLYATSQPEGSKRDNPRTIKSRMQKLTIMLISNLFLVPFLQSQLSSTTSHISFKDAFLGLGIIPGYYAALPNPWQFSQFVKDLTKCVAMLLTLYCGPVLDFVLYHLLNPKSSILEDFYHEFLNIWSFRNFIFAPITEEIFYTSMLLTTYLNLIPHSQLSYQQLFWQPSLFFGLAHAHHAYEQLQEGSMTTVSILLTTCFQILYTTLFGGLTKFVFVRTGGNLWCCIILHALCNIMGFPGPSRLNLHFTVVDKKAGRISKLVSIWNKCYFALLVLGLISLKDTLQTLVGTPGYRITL
eIF4H FP inh: human eIF4H binding inhibitors, primary screen, translation initiation inhibitor project, biochemical, uHTS, fluorescence polarization. Eukaryotic translation initiation factor 4H (Homo sapiens), Q15056. eIF4H fluorescence polarization binding assay. 290,000 compounds, 0.94% hits. inhibition, % at 35 µM;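 active = 50% or more with normal probe brightness, or confirmed in later tests; inconclusive = above 50% with abnormal brightness, or retests that disagree; inactive = below 50% or failed in later tests; about a fifth of its hits are not listed in these tables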;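 also: calls also rest on retests at 20 µM and on dose response follow-up; 0% = protein and probe with vehicle and 100% = probe without protein; strong numbers were not always called active; many hits fall short of the cut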
MT1-MMP act inh: blockers of MT1-MMP proenzyme processing, primary screen, HT1080 RFP-PRO-GFP cells, GFP/RFP fluorescence | Matrix metalloproteinase-14 (Homo sapiens), P50281 | GFP/RFP ratio fluorescence, overnight; percent of plate control window, DMSO zero | GFP/RFP ratio change, % at 20 µM | 360,000 compounds, 0.061% hits | AID 651647, 2012;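 active = GFP/RFP ratio change of at least 30% with cell ATP level not reduced by more than half and red fluorescence within 50% of control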; also: strong numbers were not always called active
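Material: RFP-PRO-GFP reporter HT1080 cells. Dosing: single-point 20 µM compound, 1% DMSO. Controls: DMSO and RFP-L50D-GFP cell wells. Timing: cells overnight before dosing, compound overnight, 37 °C, 5% CO2. Measure: GFP/RFP fluorescence ratio.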
MT1-MMP act inh RFP: also measured in MT1-MMP act inh; calls as there; RFP signal change, %; measured here: RFP expression control read;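 0 = vehicle wells; hits needed this value within 50% of zero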
* = called active by the depositor; i = inactive; ? = inconclusive; . = not tested or not shown; + = active, no number; & = joins results of further samples; [ ] = remark or other dose.

SMILES	CSC inhib	PABP polyA inh	Env fusion inh	Yeast UUG start	Rce1 inhib	eIF4H FP inh	MT1-MMP act inh	MT1-MMP act inh RFP
O=C(CCN1CCOCC1)NC1CCCN(Cc2ccccc2F)C1 (stereo not drawn)	4	-10	-10	-11	i	2	-6	0
COc1cc(NC(=S)NC2CC2)c(OC)cc1Cl	6	-2	-12	-23	i	2	-3	-3
COc1ccccc1C(=O)Nc1cc(-c2ccc(C)cc2)no1	16	-6	-27	5	i	-6	-1	-3
Cc1noc(C)c1S(=O)(=O)N(CC(=O)NCc1ccc(Cl)cc1)c1ccc2c(c1)OCO2	-8	-3	-43	-10	i	3	-6	-7
O=C(Nc1ccc(N2CCN(c3ccc(O)cc3)CC2)cc1)Oc1ccccc1	-10	4	.	-18	i	-9	3	0
COc1cc(/C=C/C(=O)OCC(=O)Nc2ccc([N+](=O)[O-])cc2)ccc1O	8	5	16	-11	i	3	-2	-1
CCOC(=O)N1CCN(C(=O)c2ccc(CNS(=O)(=O)c3ccc(NC(C)=O)cc3)cc2)CC1	-16	.	-6	0	i	.	-4	-2
COc1ccc(S(=O)(=O)N(C)C)cc1NC(=O)CSc1ncccn1	-20	12	11	-5	i	3	-2	-3
CC(C)OC(=O)/C(=C/c1ccc(Br)cc1)NC(=O)c1ccco1	21	8	9	1	i	-6	-7	-5
CCCCn1nc2cc(C(=O)NCCc3cccs3)ccc2c1OCC	7	0	.	10	i	9	2	-1
CCOc1ccc(CCNC(=O)COC(=O)c2ccc(C)s2)cc1OCC	-2	-5	20	-6	i	-2	8	8
COc1ccc(NC(=S)N=Nc2c(O)[nH]c3ccccc23)cc1	52	3	5	-13	i	14	12	-7
CC(=O)NCCNc1nc2cc(-c3ccsc3)sc2c(=O)n1C	.	.	7	-6	.	.	7	-6
Nc1c(C(=O)C2CC2)sc2nc(-c3ccccc3)cc(C(F)(F)F)c12	-1	1	-11	-17	i	-5	-267	-8
COc1ccc(/C=C/C(=O)NCc2cn(C)nc2C)cc1COc1ccc(Br)cc1	-8	-1	5	.	i	-6	6	-7
CCOc1ccc(NC(=O)CCN2CCN(c3ccccc3F)CC2)cc1	0	-7	10	-6	i	-3	0	-2
CCCCn1c(N)c(N(CCOC)C(=O)c2ccc(C)c(S(=O)(=O)N3CCCCC3)c2)c(=O)[nH]c1=O	-16	.	7	-12	i	.	0	-1
O=C(O)CCSCCCN1C(=O)c2cccc3cccc(c23)C1=O	-7	6	-5	.	.	-8	1	3
Cc1ccc(-c2c[n+](CC(=O)Nc3ccccc3)c3n2CCC3)cc1	-12	0	-3	-16	i	2	1	-2
COc1ccc(S(=O)(=O)N2CCCC(C(=O)NCc3cccnc3)C2)cc1OC (stereo not drawn)	-4	.	-6	-30	i	.	4	-7
Cc1cn([C@H]2C[C@H](O)[C@@H](CNC(=O)[C@H](N)Cc3cscn3)O2)c(=O)[nH]c1=O	.	.	-2	-23	.	.	2	5
CCc1nc2c(OCc3ccccc3)cccn2c1N(C)C(=O)Nc1ccccc1OC	.	.	-22	-11	.	.	-1	-5
CCCCn1c(N)c(Sc2ccccc2[N+](=O)[O-])c(=O)[nH]c1=O	.	-11	-6	-10	i	-2	0	-2
Cc1ccc(NC(=O)Cc2csc(-c3ccccc3)n2)cc1F	-10	-13	16	.	i	1	5	1
COc1ccc(N2CCN(C(=O)c3sc4ncn(CC(=O)N5CCCCC5C)c(=O)c4c3C)CC2)cc1 (stereo not drawn)	-8	12	10	8	i	-19	4	-4
O=C(N/N=C1\C/C(=N\NC(=O)c2ccncc2)c2ccccc21)c1ccncc1	16	?	17	-21	i	16	-33	4
COc1ccc(F)cc1C(=O)C1CCCN(C(=O)CSc2ccccn2)C1 (stereo not drawn)	-65	-1	1	5	i	-4	1	-2
CCN1CCN(C(=O)c2ccc3c(c2)c(C)c(C)n3Cc2ccccc2)CC1	53	-11	-5	-9	i	-11	1	-7
Cc1c(F)cccc1NS(=O)(=O)c1ccc(N2CCCC2=O)cc1	.	.	-8	-19	.	.	-5	0
O=C(C1CCN(Cc2ccccc2)CC1)N1CCN(C/C=C/c2ccccc2)CC1	-5	5	.	-22	i	-6	4	1
Fc1ccc(NC(=S)NC23CN4CN(CN(C4)C2)C3)cc1	-6	-5	-3	-25	i	-6	13	8
CCOC(=O)c1ccc(NCc2ccncc2)cc1	-3	.	-19	-14	i	.	5	0
COc1ccc(OCC(=O)Nc2ccc(C)c(S(=O)(=O)N(C)C)c2)cc1	19	-13	8	.	i	-9	1	-5
C/C(N)=C(/C#N)C(=O)CSc1nnc(C)n1-c1ccccc1	-10	-4	-3	.	i	16	4	-2
C=C1CCN([C@@H](Cc2ccccc2)C(=O)NCCCc2ccccc2)S(=O)(=O)c2ccccc21	-3	.	50	-9	i	.	-21	-22
CCN(CC)c1ccc(C2C(C(=O)OCCOC)=C(C)NC3=C2C(=O)CC(C)(C)C3)cc1 (stereo not drawn)	-9	-8	.	4	i	-10	-7	-7
COc1cc2cnc(-c3ccccc3)cc2cc1OC	-13	.	25	2	.	.	3	4
CCCCn1nnnc1SCC(=O)N(CC)CC	-7	3	-8	-1	i	-3	1	4
C[C@H](CO)N1C[C@H](C)[C@@H](CN(C)CC2CCCCC2)Oc2c(NS(=O)(=O)c3cccs3)cccc2C1=O	-11	.	10[16.7 µM]	7&-4	.	.	2	3
Cc1ccc2nc(/C(C#N)=C\c3ccc(OC(=O)c4cccs4)cc3)[nH]c2c1	68	-2	.	13	i	-31	-125	-15
COc1ccc(C(C)n2c(C)c3c(C)nnc(C)c3c2C)cc1 (stereo not drawn)	-13	0	41	0	i	-10	-7	-7
COc1cc2ccccc2cc1C(=O)N1CCOCC1	-3	.	-47	-16	i	.	2	3
CC(C)[C@H](N[C@@H](C)c1ccccc1)c1c(O)ccc2ccccc12	8	-14	12	-4	i	0	2	6
Cc1ccc(C(=O)Nc2sc(Cc3ccc4c(c3)OCO4)c(C)c2C(N)=O)cc1	65	2	-33	-4	i	-8	-7	2
O=C(COC(=O)Cn1cnc2ccccc21)NCCCc1ccccc1	-9	-3	6	-11	i	-1	-2	3
CCCCN(CC)CCNC(=O)c1ccc2c(Cl)c3c(nc2c1)CCC3	15	5	3	-1	i	-2	2	1
Cc1cc(Nc2ccc(Br)cc2F)n2ncnc2n1	-25	-10	1	-13	i	-10	-2	2
CCOC(=O)c1cc(NC(=O)c2ccc(Cl)cc2)c(=O)n2c1oc1ccc(Cl)cc12	11	16	.	-14	i	2	0	-1
COc1cc(C)nc(N2CCCC(C(=O)Nc3cccc(Cl)c3C)C2)n1 (stereo not drawn)	.	-9	22	-10	i	-12	-2	-8
O=C(NCCO)C1(c2ccc(Cl)cc2)CCCC1	-2	3	-18	-20	i	-10	1	0
COc1ccc2oc(-c3ccccc3)c(C(=O)N3CCOCC3)c2c1	-6	-11	.	-2	+	-9	-1	5
CCCCn1c(N)c(N(CCC(C)C)C(=O)C2CCN(C(=O)c3ccccc3C)CC2)c(=O)[nH]c1=O	.	.	-3	-2	i	.	1	2
CCOc1ccc(NC(=O)COC(=O)c2ccc3c(c2)C(=O)N(CCc2ccccc2)C3=O)cc1	5	2	-14	-3	i	-4	6	5
O=c1c2ccccc2nc(-c2ccco2)n1/N=C/c1ccco1	4	91*	.	-19	i	97*	3	7
CN(C)CCCN(C(=O)c1ccc2c(c1)CCCC2)c1nc2ccc(F)cc2s1	.	-9	.	17	i	-3	-11	-11
COc1cc2c(cc1/C=C1/NC(=O)N(c3ccccc3)C1=O)OCO2	0	-11	.	-11	i	4	-2	-1
CCn1c(CNC(=O)c2cccs2)nnc1SCC(=O)Nc1ccc(Cl)cc1	-8	-11	2	-15	i	-7	0	-1
CCCNC(=O)c1cc(C2CCCCN2C(=O)c2ccc(C(C)C)cc2)on1 (stereo not drawn)	.	.	-12	-3	.	.	0	-5
COc1ccccc1NC(=O)CN1C(=O)NC2(CCCCCCC2)C1=O	10	-10	-3	-6	i	7	4	-2
Cc1nn(-c2ccccc2)nc1CNC(=O)C1CC1	-2	-2	6	.	i	-7	-2	2

Single records (already shown). Values in the order: CSC inhib | PABP polyA inh | Env fusion inh | Yeast UUG start | Rce1 inhib | eIF4H FP inh | MT1-MMP act inh | MT1-MMP act inh RFP
Record of COc1cc(C)nc(N2CCCC(C(=O)Nc3cccc(Cl)c3C)C2)n1 (stereo not drawn) = . | -9 | 22 | -10 | i | -12 | -2 | -8
Record of COc1ccc2oc(-c3ccccc3)c(C(=O)N3CCOCC3)c2c1 = -6 | -11 | . | -2 | + | -9 | -1 | 5

(further entries)
SMILES	CSC inhib	PABP polyA inh	Env fusion inh	Yeast UUG start	Rce1 inhib	eIF4H FP inh	MT1-MMP act inh	MT1-MMP act inh RFP
CCCN1C(=O)c2cc(C(=O)Nc3ccccc3C)ccc2C1Nc1ccccc1C (stereo not drawn)	-5	1	15	6	i	-2	2	0
O=C(Nc1ccncc1)C1(c2ccccc2)CCCC1	2	3	.	-4	i	8	4	-2
Cc1cccc(NC(=O)COc2coc(CN3CCN(c4ccccc4)CC3)cc2=O)c1C	-9	.	9	-21	i	.	-8	-24
COc1cccc(N(CC(=O)Nc2cccc(F)c2)S(C)(=O)=O)c1	.	3	.	-5	i	12	0	3
CCOc1cccc(-c2c(C(=O)N/N=C(\C)c3ccncc3)nnn2-c2nonc2N)c1	-13	-1	-2	-23	i	-3	-11	-4
CCOC(=O)N1CCN(C(=O)C2CC(=O)N(c3ccc(OC)cc3)C2c2ccc(OC)cc2)CC1 (stereo not drawn)	-2	29	-8	-2	i	-7	0	-6
CCOC(=O)C1CCCN(C(=O)CN2CCN(Cc3ccc(Cl)cc3)C2=O)C1 (stereo not drawn)	-6	4	.	.	i	6	.	.
COc1ccc2c(c1)O/C(=C\c1ccccc1C)C2=O	21	-1	-14	-4	i	0	-2	-4
COc1ccc(/C=C/C(=O)c2ccc([N+](=O)[O-])o2)cc1OC	78*	.	-143	.	i	.	.	.
Cc1cccc(NC(=O)CSc2nnc(Cn3cnc4ccccc43)o2)c1	-2	3	30	-28	i	-9	1	4
COCCn1cc(C(=O)NCc2cccs2)c2c3ccccc3n(C)c2c1=O	-6	6	5	-2	i	-3	0	0
Cc1cc(C)c(S(=O)(=O)c2ccccc2C(C)C)c(=O)[nH]1	-3	-11	-12	-12	i	-8	-1	1
Cc1ccc(Cn2ccc(=O)c(OCc3ccccc3)c2C)cc1	-14	0	.	2	i	-4	-3	-4
COc1ccc(OC)c(Nc2nc(C)nc3c2oc2ccccc23)c1	14	2	14	-8	i	-13	-3	-4
CSc1ccc(/C=C(\NC(=O)c2ccc(C)cc2)C(=O)Nc2cccc(C)c2)cc1	9	-2	13	-2	i	0	-9	4
CC(=O)c1cccc(NC(=O)CCNS(=O)(=O)c2cccc3nonc23)c1	11	-3	19	16	i	-1	-3	-1
O=C(NNC(=O)c1ccc2ccccc2c1)c1cccc(Cl)c1	.	.	-2	-6	.	.	0	-3
O=C(C1CCC(Cn2c(=O)[nH]c3ccccc3c2=O)CC1)N1CCN(c2ccccc2)CC1 (stereo not drawn)	-11	-12	20	-19	i	3	-4	-8
O=C(Nc1ccc2c(c1)OCO2)c1cc(-c2cccc(O)c2)on1	100*	10	-11	1	i	7	-3	-2

Screening data as filed in PubChem.
